Screening data: PubChem BioAssay, Fisher Drug Discovery Resource Center
NPYLR7 ag = activates Aedes aegypti NPYLR7 receptor; activation, % at 10 µM; AID 1259423; 270,000 tested, 0.15% active; HEK293T NPYLR7/Galpha15, GCaMP6s calcium fluorescence; in the data active = activation above about 40%;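 note: 0% = vehicle and 100% = reference agonist at the receptor; some compounds past the cut are filed as inactive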
NPYLR7 ag max-min = further read-out of NPYLR7 ag, marked with its call; activation, %; measured here: Max-Min RFU normalised activation; some inactives read as strong as hits;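 span of the calcium signal over five minutes; 0% = vehicle and 100% = native peptide agonist; compound fluorescence can raise it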
The depositor's hits bear a star. Some of the compounds tested (hit frequency here may not be typical).

Fields: NPYLR7 ag	NPYLR7 ag max-min
1. CSc1ccc(C=NNc2ncc(C(F)(F)F)cc2Cl)cc1
  -5	-6
2. CCc1ccc(N2C(=O)C3N=NN(Cc4cccc(C)c4)C3C2=O)cc1 (configuration not stated)
  4	-6
3. O=C(CN1C(=O)SC(=Cc2cccs2)C1=O)OCC(=O)c1ccc[nH]1
  -2	28
4. Cc1cc(NC=C(Br)C(=O)C(F)(F)F)no1
  4	7
5. O=C(O)Cc1ccccc1-n1ncc2cccnc21
  0	-2
6. Cc1cccc(C(=O)N(Cc2cc(NC(=O)CC(C)C)ccc2N(C)C)C(C)c2ccccc2)c1 (configuration not stated)
  6	6
7. CCN1CCN(c2c(CN(CCOC)C(=O)Cc3ccc(F)cc3)c(C)nn2-c2ccccc2)CC1
  2	3
8. COCCCn1c(C)c(C)n2c3c(=O)n(CCCc4ccccc4)c(=O)n(C)c3nc12
  4	3
9. C=CCn1c(=O)c2c(OCC)c(C)cnc2n(C)c1=O
  3	1
10. Cc1cc(C(=O)N2CCCC(Cn3cc(C4CCCC4)nn3)C2)nc(C)n1 (configuration not stated)
  8	-2
11. Cc1ccccc1-c1nc(CN(C)Cc2nonc2C)c(C)o1
  -6	-12
12. O=S(=O)(c1ccc(Br)cc1)N1CCCC(C(F)(F)F)C1 (configuration not stated)
  1	6
13. COC1CCCCC1OC(=O)C(C)Cc1c(C)nn(C)c1C (configuration not stated)
  2	0
14. CC(C)(C)[C@@H](CO)NC(=O)CCC(=O)NC1CCCC1
  -1	-5
15. Cc1cccc(C)c1OC1CN(C(=O)C(=O)c2ccco2)C1
  0	-3
16. CCCc1nn(CC2CCCO2)c(=O)o1 (configuration not stated)
  16	4
17. CSc1ccc(NC(=O)c2cc3ccccc3o2)cc1
  20	7
18. CCOc1cc(C2C(C(=O)OCc3ccccc3)=C(C)NC3=C2C(=O)CC(c2ccccc2)C3)ccc1O (configuration not stated)
  1	6
19. Cc1ccc(NC(=O)CSc2c(C(C)C)cnc3c2c(=O)n(C)c(=O)n3C)cc1Cl
  8	13
20. O=C(COC(=O)CNC(=O)c1ccco1)NCCN1C(=O)CSC1=O
  -4	-3
21. O=c1ccc(-c2cccs2)nn1CCNS(=O)(=O)c1ccc(OC(F)(F)F)cc1
  10	10
22. N#Cc1ccc(N2CCC(N3CCCc4cc(OC(F)F)ccc43)C2=O)cc1 (configuration not stated)
  -1	1
23. Cc1ccc(-n2c(SCc3ccccc3)nnc2C(Cc2ccccc2)NC(=O)COc2ccc(Cl)cc2)cc1 (configuration not stated)
  -3	-2
24. N=C(N)Sc1cn(Cc2cccc(F)c2)c2ccccc12
  -6	-13
25. CC(C)c1ccc(CC2(C)C(=O)Nc3cccc(Cl)c32)cc1 (configuration not stated)
  -3	5
26. CCS(=O)(=O)Oc1ccc(Cl)cc1CN(C(=O)CC(C)C)C(C)C
  7	15
27. FC(F)(F)CNC1CCCOC1 (configuration not stated)
  16	8
28. CC(=O)N(c1ccccc1)c1nc(CCl)cs1
  -5	-8
29. O=C(CC1CCCO1)Nc1c(F)cc(F)cc1F (configuration not stated)
  -3	-5
30. CC(C)N(Cc1c(-c2ccccc2)noc1N1CCOCC1)C(=O)c1ccc(C(F)(F)F)cc1
  2	6

Results in sequence from the entries so far.
NPYLR7 ag, compounds 21 to 30: 10, -1, -3, -6, -3, 7, 16, -5, -3, 2

(listing goes on)
Fields: NPYLR7 ag	NPYLR7 ag max-min
31. Cn1cc(CN2CCN(C(=O)c3ccco3)CC2)c(-c2ccc(Oc3ccccc3)cc2)n1
  14	1
32. CCN1CCN(C(=O)CCC2CCN(Cc3cccc4c3OCO4)CC2)CC1
  5	1
33. COC1CCC(C(=O)N2C[C@@H](N)C[C@H]2C(=O)NC(C)C)CC1 (some centres not stated)
  9	5
34. CC(C)Cn1c(CN2CCC(NS(C)(=O)=O)CC2)nc2ccccc21
  -4	-12
35. Cc1ccc(C(C)/C=N\NS(=O)(=O)c2ccc(CC(C)C)cc2)s1 (configuration not stated)
  -3	-4
36. CC1=NN(C(=O)c2c(C)nc3ccccn23)C(O)(C(F)(F)F)C1 (configuration not stated)
  -1	-2
37. CCN(CC)S(=O)(=O)N1CCn2nc(C(=O)Nc3ccccc3)cc2C1
  10	0
38. O=C(c1ccc2c(c1)CCCO2)N1CCCC(c2cc(=O)[nH]cn2)C1 (configuration not stated)
  -7	-11
39. O=C(NN=Cc1ccc(Cl)cc1Cl)c1cc(-c2cccs2)[nH]n1
  14	2
40. Cc1cc(C)c2sc(N(CCCN3CCOCC3)C(=O)c3ccco3)nc2c1
  0	-6
41. CC(C)c1cc(C(=O)NC2CCCN(C3Cc4ccccc4C3)C2)on1 (configuration not stated)
  6	3
42. CC(C)C(=O)N1CCN(C(=O)c2ccccc2Nc2ccccc2)CC1
  2	0
43. Cc1cc(C(=O)N(Cc2ccco2)c2nc3c(C(C)C)cccc3s2)no1
  5	2
44. CCOc1ccccc1C(=O)N1CCN(Cc2cc(=O)c(OCc3ccc(-c4ccccc4C#N)cc3)co2)CC1
  15	7
45. CN(C)C(=O)c1nn(Cc2ccccc2)c2c1CN(C/C=C/c1ccccc1)CC2
  -2	-6
46. CCN(C(=O)c1c[nH]c2c(c(C)nn2-c2ccc(C)cc2)c1=O)c1ccccc1
  -3	12
47. CC(C)CN1CCC(NCc2ccc(-n3cncn3)cc2)CC1
  0	21
48. Cn1cc(C(C)(O)CNC(=O)C2COc3ccccc32)cn1 (configuration not stated)
  7	4
49. Cc1ccc(-c2nnc(SCCCCC(=O)NC(Cc3ccccc3)c3ccccc3)n2-c2ccccc2)cc1 (configuration not stated)
  5	19
50. Cc1ccc(CNc2cccc(C(=O)N(C)CCn3ccnc3C)c2)s1
  2	-1
51. COCCCn1cc(C(=O)N2CCCC(C)C2)c2nn(-c3ccccc3)c(=O)c-2c1 (configuration not stated)
  7	6
52. O=C(CCCn1nnnc1CN1CCOCC1)N1CCCN(Cc2cccs2)CC1
  0	-1
53. COc1ccc2c(=O)c(C(=O)NCC3COc4ccccc4C3)c[nH]c2c1 (configuration not stated)
  4	3
54. Cn1cnc(S(=O)(=O)N2CC[C@@H](c3ccc4c(c3)OCO4)[C@H](O)C2)c1
  -5	-6
55. Cc1nc(CCN)n(-c2ccc(C(F)(F)F)cc2)n1
  -3	-6
56. COc1ccc2c(c1)C(C(=O)N1CCN(CC(=O)OC(C)(C)C)CC1)=CC(C)(C)CO2
  5	15
57. CNCc1nccn1C
  4	1
58. Cc1cc(OC(=O)c2ccccc2Br)c([N+](=O)[O-])c(=O)[nH]1
  5	7
59. NCCNc1ccc(C(=O)NC2Cc3ccccc3C2)cn1
  0	2
60. Cc1cccc(-c2nc3ccc(Cl)cn3c2NCc2ccccc2)c1
  1	11
61. COC(=O)c1cccc(C(=O)N2CCC(C(Cc3ccc(F)cc3F)N(C)C(=O)C3CC3)CC2)c1 (configuration not stated)
  17	8
62. CCOc1cccc2sc(N(Cc3ccccn3)C(=O)Cc3ccc(S(=O)(=O)CC)cc3)nc12
  -4	-10
63. Cc1ccccc1C(NC(=O)C1CCN(Cc2ccccc2)CC1)c1cnccn1 (configuration not stated)
  0	-5
64. COCCN(CC(=O)N(Cc1ccc(F)cc1)Cc1ccco1)C(=O)Nc1ccc(Cl)cc1
  0	4
65. O=C(CCC(=O)c1cccs1)NCc1ccccc1F
  -1	4
66. COc1ccc(-c2ccc(C(=O)N3CCCC(c4ccccc4)CC3)cn2)cn1 (configuration not stated)
  -2	-3
67. O=C(c1ccc2c(c1)OCCCO2)N1CCN(S(=O)(=O)c2cccc(Cl)c2)CC1
  -11	-13
68. CN1CC2(CCCN(C(=O)c3ccc4cccnc4c3O)C2)OC1=O (configuration not stated)
  5	-2
69. Cc1cc2c(c(-c3cc(NC(C)C)ncn3)c1)OC(CN)C2 (configuration not stated)
  6	4
70. O=C(CCNC(=O)C1CCC(O)CC1)Nc1cccc2ccccc12 (configuration not stated)
  -3	-5
71. O=C(CN(CC1CCOC1)C1CC1)Nc1ccccc1 (configuration not stated)
  -1	3
72. c1ccc2sc(N3CCCC(NCc4ccc5nsnc5c4)C3)nc2c1 (configuration not stated)
  3	-2
73. CCCCC(CC)CNC(CC(=O)Nc1ccc(O)cc1)C(=O)O (configuration not stated)
  -5	-6
74. O=C1Cc2cc(S(=O)(=O)N3CCNCC3)ccc2N1
  -1	3
75. c1cc(-c2nc3cc(Cc4ccc5oc(-c6ccncc6)nc5c4)ccc3o2)ccn1
  0	-3
76. CCc1ccc(-n2cc(-c3ccc(F)cc3)[n+]3c2SCCC3)cc1
  3	3
77. Cc1cc(C(=O)N2CCC2(C)C(=O)NS(=O)(=O)c2cccc(OC(F)F)c2)nn1C (configuration not stated)
  1	-2
78. Cc1nn(CC(=O)Nc2ccc(F)cc2)c(C)c1[N+](=O)[O-]
  6	6
79. NC1=NC(=O)/C(=C\c2ccc(Cl)cc2)S1
  -4	-9
80. Cc1cccc(C(=O)N2CCC3(CC2)OCC(C(=O)N2CCCC2)N3C(=O)c2ccc(F)cc2)c1 (configuration not stated)
  0	3
81. CS(=O)(=O)Cc1cccc(Nc2ncnc3cccc(F)c23)c1
  -1	16
82. COc1cc(C(=O)NCc2nc(C)cs2)ccc1C
  1	0
83. Cc1cccc2sc(NC(=O)CN3CCCC(O)(CO)C3)nc12 (configuration not stated)
  0	-5
84. CCCCCCCC(=O)N(CCCOC)C(C)c1nc2ccccc2c(=O)n1-c1ccc(C)cc1C (configuration not stated)
  5	17
85. Cc1c(C(=O)N2CCN(C(=O)c3ccco3)CC2)cc(-c2ccccc2)n1-c1ccc(F)cc1F
  -6	5
86. COc1ccc(-n2nc(C(=O)Nc3ccc(F)cc3)c(=O)n(Cc3cccc(C(F)(F)F)c3)c2=O)cc1OC
  15	14
87. CCOC(=O)CC(=O)N1CCN(CC(OCc2cccc(C)c2)c2ccc(Cl)cc2)CC1 (configuration not stated)
  -4	-1
88. Nc1nc2ccc(S(=O)(=O)N3CCOCC3)cc2s1
  11	7
89. O=C(O)c1cc(S(=O)(=O)N2CCc3ccccc32)c(F)cc1F
  3	-3
90. CCSc1nnc(NC(=O)CN2CCc3[nH]nc(C(C)C)c3C2)s1
  17	8

Whole records, quoted from the list:
Shown for CCOC(=O)CC(=O)N1CCN(CC(OCc2cccc(C)c2)c2ccc(Cl)cc2)CC1 (configuration not stated) = NPYLR7 ag = -4; NPYLR7 ag max-min = -1
Shown for Nc1nc2ccc(S(=O)(=O)N3CCOCC3)cc2s1 = NPYLR7 ag = 11; NPYLR7 ag max-min = 7
Shown for NC1=NC(=O)/C(=C\c2ccc(Cl)cc2)S1 = NPYLR7 ag = -4; NPYLR7 ag max-min = -9

Continued.
Fields: NPYLR7 ag	NPYLR7 ag max-min
91. CC(C)(C)C(=O)N1CCCC(C(=O)NC(C#N)c2ccsc2)C1 (configuration not stated)
  -5	-7
92. Cc1noc(C)c1C(=O)N1CCN(Cc2cc(=O)c(OCc3ccc(-c4ccccc4C#N)cc3)co2)CC1
  30	12
93. Cc1nnc(NC(=O)CCNC(=O)C2CCCC2)s1
  -4	-4
94. CC(C)c1cc(C(=O)NCCc2csc(-c3cccnc3)n2)n(C)n1
  -3	-3
95. CN(C)C1(CNC(=O)c2ccc(C#CC(C)(C)O)o2)CCSC1 (configuration not stated)
  8	3
96. Cc1c(NCc2cccnc2)cccc1C(=O)NCCc1cnc[nH]1
  12	1
97. COc1ccc(Br)cc1C=CC(=O)N1CCCC1c1nc2ccccc2s1 (configuration not stated)
  -2	-5
98. C=CCn1cc([C@@H]2C[C@H](NC(C)=O)C[C@H](C3CCCCC3)O2)c(C)n1
  20	11
99. COC(=O)c1sc(N)c(C(=O)OC)c1C
  1	1
100. Cc1nc(Nc2ccc(F)cn2)sc1C(=O)N1CCN(C2CCCCC2)CC1
  -3	-7
101. COc1ccc(Cn2ccnc2CN(CCN2CCOCC2)C(=O)c2ccc(Cl)cc2)cc1
  8	17
102. CC1(C)c2ccccc2N2CC(=O)N(CC#N)[C@@]21C
  3	17
103. COCC(=O)N1CCCC(N2CCN(c3ccccc3C)CC2)C1 (configuration not stated)
  4	13
104. C=C(C)CN(C)C(=O)CC(=O)NC12CC3CC(CC(C3)C1)C2
  13	1
105. COCC(=O)N(CCN1CCOCC1)Cc1nccn1Cc1cccc(Cl)c1
  13	19
106. O=C(NCCc1ccc(F)cc1)N1CCN(C(c2ccccc2)c2ccc(Cl)cc2)CC1 (configuration not stated)
  -3	-4
107. CCc1cc2c(=O)n(Cc3cc(F)cc4cccnc34)cnc2s1
  1	-1
108. CCN(CC)c1ccc2cc(C(=O)Nc3cc(C(=O)O)ccc3C)c(=O)oc2c1
  11	1
109. Cc1cc2nc(N(CCCN(C)C)C(=O)c3ccc(C#N)cc3)sc2cc1C
  0	-3
110. O=C(C1CC=CCC1)N1CCc2onc(C(c3ccccc3)c3ccccc3)c2C1 (configuration not stated)
  13	1
111. O=C(NCc1ccccc1)c1cc(NC(=O)C23CC4CC(CC(C4)C2)C3)ccc1N1CCCC1
  7	11
112. c1ccc(-c2nccc(Nc3cn[nH]c3)n2)cc1
  0	1
113. CCN(CC)c1ccc2cc(-c3nnc(Nc4ccc(C#N)cc4)s3)c(=O)oc2c1
  -5	-11
114. Cc1c(C#N)c(NC(=O)CN(C)C(C)c2ccc(F)cc2)n(CC2CCCO2)c1C (configuration not stated)
  -4	0
115. O=C(NC1CCCCC1)C1CCN(S(=O)(=O)c2cnc[nH]2)CC1
  6	9
116. CCCC(=O)N(Cc1ccncc1)c1nc2c(C)cc(Cl)cc2s1
  3	2
117. COc1ccc(C(=O)Oc2c(S(=O)(=O)c3ccc(C)cc3)c(C)nn2C(C)(C)C)cc1OC
  2	36
118. COc1ccc(OC)c(COC(=O)c2[nH]c(C)c(C(C)=O)c2C)c1
  4	-1
119. C=C(C)Cn1c(=O)c2c(nc3n2CCCN3c2ccc(F)cc2)n(C)c1=O
  2	2
120. NC(=O)c1ccccc1NC(=O)CCCn1nc(-c2ccccc2)ccc1=O
  9	10
